Assay outcomes (PubChem)
eIF4H inh = inhibitors of RNA binding by human eIF4H; inhibition, % at 35 µM; actives 0.94% (n = 290,000); eIF4H fluorescence polarization binding assay;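 active = 50% or more with normal probe brightness, or confirmed in later tests; about a fifth of its hits are not listed in these tables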;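 also: calls also rest on retests at 20 µM and on dose response follow-up; 0% = protein and probe with vehicle and 100% = probe without protein; strong numbers were not always called active; many hits fall short of the cut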
MT1-MMP act inh = inhibitors of human MT1-MMP activation | HT1080 RFP-PRO-GFP cells, GFP/RFP ratio fluorescence, overnight; percent of plate control window, DMSO zero | GFP/RFP ratio change, % at 20 µM | actives 0.061% (n = 360,000) | AID 651647;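 active = GFP/RFP ratio change of at least 30% with cell ATP level not reduced by more than half and red fluorescence within 50% of control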; also: strong numbers were not always called active
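Read-out: GFP/RFP fluorescence ratio; Test system: RFP-PRO-GFP reporter HT1080 cells; Compound dosing: single-point 20 µM compound, 1% DMSO; Times: overnight compound exposure at 37 °C.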
Yeast UUG start = yeast start codon fidelity modulation | S. cerevisiae UUG-firefly luciferase reporter, luminescence/redox ratio | activity score, % at 18.7 µM | actives 0.13% (n = 350,000) | AID 602363;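 active = replicate mean at a twofold rise or more, about +100% in these data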;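 also: firefly luciferase made from a UUG start codon reports start codon fidelity; reporter light over untreated wells divided by growth signal over untreated wells; some hits fall short of that in this replicate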
CSC inhib = blocks cancer stem cells | cancer stem cell-like cells viability, luminescence | inhibition, % at 7.5 µM | actives 1.1% (n = 300,000) | AID 2717;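 active = mean at 75% or more and at least half the replicates too; tested in HMLE shEcad cells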;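 also: 0% = median of negative and 100% = median of positive control wells; the first replicate is given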
HIV Env fusion = HIV envelope-mediated fusion inhibition. inhibition, % at 12.3 µM. actives 1.1% (n = 360,000). HeLa-JRFL Env/CEM21 cell fusion, luciferase;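 active = mean replicate inhibition score of at least 50 and every replicate individually at or above 50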;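 also: 0% = plate neutral controls and 100% = maraviroc near 300 nM; one replicate is shown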
PABP FP inh = blocks human PABP binding to poly(A) RNA; actives 1% (n = 290,000); inhibition, % at 35 µM; P11940; fluorescence polarization;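 active = 50% or more with normal probe brightness, or confirmed in later tests; about a fifth of its hits are not listed in these tables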;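 also: calls also rest on retests at 20 µM and on dose response follow-up; controls were probe without protein and protein plus probe with vehicle; some compounds called inactive have numbers as strong as hits; many hits fall short of the cut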
Target sequence (P11940 whole entry, looked up): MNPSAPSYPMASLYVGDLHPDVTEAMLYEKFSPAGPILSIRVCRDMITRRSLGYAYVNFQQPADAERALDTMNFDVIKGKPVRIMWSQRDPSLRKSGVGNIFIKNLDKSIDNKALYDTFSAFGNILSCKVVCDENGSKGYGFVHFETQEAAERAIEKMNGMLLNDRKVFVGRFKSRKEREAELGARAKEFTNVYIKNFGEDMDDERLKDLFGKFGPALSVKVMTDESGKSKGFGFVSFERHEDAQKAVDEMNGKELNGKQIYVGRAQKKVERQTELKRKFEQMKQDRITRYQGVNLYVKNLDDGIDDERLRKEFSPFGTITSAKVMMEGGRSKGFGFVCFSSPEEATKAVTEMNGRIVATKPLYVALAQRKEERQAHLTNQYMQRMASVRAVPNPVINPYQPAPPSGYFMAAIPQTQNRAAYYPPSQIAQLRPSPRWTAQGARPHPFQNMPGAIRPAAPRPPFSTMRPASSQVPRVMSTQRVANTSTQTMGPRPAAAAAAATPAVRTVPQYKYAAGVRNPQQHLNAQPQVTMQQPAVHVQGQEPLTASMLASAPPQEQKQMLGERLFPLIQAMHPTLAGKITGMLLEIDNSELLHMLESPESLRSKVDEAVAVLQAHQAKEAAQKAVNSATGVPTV
Rce1 inhib = blocks yeast Ras-converting enzyme | Q03530 | yeast membranes, quenched prenylated peptide cleavage fluorescence | calls only | actives 0.27% (n = 290,000) | AID 2563;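 active = fall in fluorescence gain of 50% or more versus controls, with final raw signal at or below 3038400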;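 also: plate controls were neutral control wells for no effect and wells lacking membranes for full effect; tested at 10 µM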
Target sequence (Q03530 whole entry, looked up): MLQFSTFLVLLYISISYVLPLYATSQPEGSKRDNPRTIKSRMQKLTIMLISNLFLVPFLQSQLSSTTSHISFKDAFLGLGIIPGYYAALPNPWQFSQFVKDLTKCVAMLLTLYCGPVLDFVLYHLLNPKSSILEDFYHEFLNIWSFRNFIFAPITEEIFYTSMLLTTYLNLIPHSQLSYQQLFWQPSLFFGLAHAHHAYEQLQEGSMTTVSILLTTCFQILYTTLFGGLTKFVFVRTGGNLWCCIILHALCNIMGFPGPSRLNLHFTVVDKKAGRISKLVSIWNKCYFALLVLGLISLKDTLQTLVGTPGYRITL
eIF4H inh retest = second read-out of eIF4H inh, no call of its own (marks repeat the call); inhibition, %; compound at 20 µM; confirmation average;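 mean of two retest wells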
PABP FP inh retest = second read-out of PABP FP inh, no call of its own (marks repeat the call); inhibition, %; compound at 20 µM; confirmation repeats;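 mean of two retest wells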
MT1-MMP act inh RFP = further read-out of MT1-MMP act inh, marked with its call; RFP signal change, %; measured here: RFP expression control read;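 0 = vehicle wells; hits needed this value within 50% of zero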
* = called active by the depositor; i = inactive; nt = no result given; + = active, no number.

SMILES | eIF4H inh | MT1-MMP act inh | MT1-MMP act inh RFP | Yeast UUG start | CSC inhib | HIV Env fusion | PABP FP inh | Rce1 inhib | others
Cc1cccc2sc(NNC(=O)c3ccc(S(=O)(=O)N4CC(C)CC(C)C4)cc3)nc12 (configuration not stated) | 18 | nt | nt | -21 | 118* | nt | 1 | i
C=CCSC1=Nc2sccc2C2=NC(=O)CN12 | 9 | -2 | 6 | 4 | -7 | nt | 9 | i
Cc1ccccc1NC(=S)N1CCCN(Cc2ccc(F)cc2)C1 | 0 | -1 | 1 | -12 | -9 | 2 | -5 | i
Cc1cc(C)n2nc(C(=O)OCC(=O)c3ccccc3)nc2n1 | nt | -2 | 0 | -16 | -11 | nt | nt | nt
CCOC(=O)C1=C(C)NC(C)=C(C(=O)OCC)C1c1ccc(C)o1 | -7 | 2 | -6 | nt | -7 | 6 | 2 | i
CC(=O)OC(C(=O)NC1CCCCC1)c1cccc(F)c1 (configuration not stated) | -4 | 0 | 4 | -10 | -9 | 4 | -3 | i
COC(=O)C1=C(C(=O)c2ccccc2)C(c2ccc(O)c(OC)c2)n2nnnc2N1 (configuration not stated) | 0 | -7 | 3 | -13 | 0 | nt | 8 | nt
NNC(=O)c1cnn(Cc2ccccc2)c1N | -2 | -6 | -2 | -17 | -11 | nt | 9 | i
Cn1c(SCC(=O)c2ccc(F)cc2)nnc1-c1ccccn1 | -5 | 3 | 4 | -9 | -5 | -26 | 1 | i
O=[N+]([O-])c1cccc(/C([O-])=C(/C(=S)Nc2ccccc2F)[n+]2ccccc2)c1 | -1 | -2 | -2 | nt | 5 | 9 | 1 | i
CCCCCCCCCC[N+](C)(C)CC/C=C1/c2ccccc2Sc2ccc(Cl)cc21 | 25 | -28 | -24 | -26 | 106* | nt | 14 | +
CCOC(=O)c1oc2c(CN3CCN(C)CC3)c(O)ccc2c(=O)c1-c1ccc(Br)cc1 | -3 | 5 | -2 | nt | -15 | nt | 6 | i
COc1ccc(C(=O)Nc2ccc3c(c2)n(C)c(=O)n3C)cc1OC | 0 | 10 | 10 | -1 | -10 | -11 | 8 | i
COc1ccc(/C=C2\SC(=S)N(CCCC(=O)NNC(=O)c3ccccc3O)C2=O)cc1 | -8 | 6 | 0 | nt | -1 | 59* | 7 | i
CCCOC(=O)c1[nH]c2c(c1C)C(=O)CC(c1cccs1)C2 (configuration not stated) | 4 | 9 | -9 | -2 | 52 | -360 | 6 | i
O=C(CN1CC(c2ccccc2)CC1=O)Nc1ccc2c(c1)OCO2 (configuration not stated) | -4 | -3 | 3 | 2 | -20 | -5 | 0 | i
Cc1ccc(S(=O)(=O)N(C)C)cc1NC(=O)COC(=O)CNC(=O)C12CC3CC(CC(C3)C1)C2 | nt | -4 | -3 | nt | -14 | -36 | nt | i
CCCCn1c(N)c(N(CCOC)C(=O)c2c(-c3ccccc3)noc2C)c(=O)[nH]c1=O | nt | 1 | 4 | -8 | -14 | -10 | nt | i
Cc1ccc(C(=O)NCC(=O)OCC(=O)c2ccc3c(c2)OCCO3)cc1C | -2 | 0 | 0 | -3 | -6 | -28 | 2 | i
O=C(Nc1ccc(O)cc1)c1cccc(Oc2ccc([N+](=O)[O-])cc2)c1 | -2 | 4 | -10 | nt | nt | 16 | -4 | i
CC[C@]12CCCN3CCc4c(n(c5ccccc45)C(=O)C1)C32 (some centres not stated) | 3 | nt | nt | nt | -9 | nt | 3 | i
CSc1ccc(CN2CCC(CO)(Cc3ccc(Cl)cc3)CC2)cc1 | -2 | 2 | -15 | nt | 49 | 13 | -6 | i
Cc1cccc(C)c1NC(=O)CNC(=O)C(Cc1ccccc1)NC(=O)c1ccccc1 (configuration not stated) | -3 | -5 | 0 | -13 | -3 | nt | -7 | i
CC(=O)OCC(=O)Nc1cc(S(=O)(=O)N2CCCCCC2)ccc1Cl | -6 | -4 | -1 | nt | -4 | 5 | 2 | i
Cc1ccc(SC(C)C(=O)O/N=C(\N)c2ccncc2)cc1 (configuration not stated) | -2 | 1 | -13 | -15 | 7 | 40 | -4 | i

Carrying on:
SMILES | eIF4H inh | MT1-MMP act inh | MT1-MMP act inh RFP | Yeast UUG start | CSC inhib | HIV Env fusion | PABP FP inh | Rce1 inhib | others
COc1ccc(C(=O)NC(=S)N2CCCCC2)cc1[N+](=O)[O-] | 1 | 5 | 6 | nt | -14 | -8 | -1 | i
COc1ccc(NC(=O)Cc2cccc3ccccc23)cc1 | -2 | -2 | 0 | -19 | -1 | 5 | 8 | i
C=CC[C@@H](CC(=O)OC(C)(C)C)C(=O)OC[C@@H]1CCCN1C(=O)[C@@H](CC=C)CC(=O)N[C@@H](CO)Cc1ccccc1 | nt | 2 | -3 | 19 | -13 | -17 | nt | nt
O=[N+]([O-])c1cc2c(cc1/C=N/n1c(-c3ccccc3)n[nH]c1=S)OCO2 | 59* | -2 | -3 | nt | nt | -68 | 25 | i | eIF4H inh retest=93*;PABP FP inh retest=43
N#Cc1ccccc1S(=O)(=O)N1CCN(C(=O)C2CCC2)CC1 | nt | 3 | 2 | nt | -3 | nt | nt | i
CCOC(=O)/C(=N\Nc1ccccc1Cl)N1CCN(c2ccccc2OC)CC1 | -3 | -9 | -9 | nt | 41 | 31 | -2 | i
O=C(Nc1ccccc1N1CCOCC1)c1cccs1 | -8 | -5 | -6 | -10 | 4 | nt | 10 | i
CC(C)C[C@@H]1NC(=O)[C@H](Cc2ccc(O)cc2)NC(=O)c2cc([N+](=O)[O-])cc(I)c2NCCC[C@@H](C(N)=O)NC1=O | 11 | 5 | 2 | -13 | -11 | nt | 6 | nt
COc1ccc(C)cc1-n1c(SCC(=O)Nc2cc(C)on2)nc2ccccc2c1=O | 3 | -4 | -3 | -6 | -12 | 7 | -1 | i
CC(CC(=O)Nc1ccc2c(c1)c(=O)n(C)n2Cc1ccc(F)cc1)C(F)(F)F (configuration not stated) | nt | -1 | -5 | -1 | nt | 7 | nt | nt
Cc1ccc(S(=O)(=O)C2(C(=O)N3CCCCCC3)CC2)cc1 | -1 | 0 | -1 | nt | -4 | -31 | 6 | i
Cc1ccc(NC(=O)COc2ccc(N3CC(C(N)=O)CC3=O)cc2)c(C)c1 (configuration not stated) | -1 | -4 | -2 | -8 | -8 | 17 | 3 | i
NS(=O)(=O)c1ccc(CCNC(=O)c2cccnc2)cc1 | 5 | 3 | -3 | -4 | -4 | nt | 0 | i
O=c1c2ccccc2sc2ccc(NCCCN3CCOCC3)cc12 | nt | -75 | -2 | 1 | -16 | 0 | nt | i
O=C(c1ccc(S(=O)(=O)c2ccccc2)cc1)N1CCc2ccccc2C1 | -4 | 2 | 1 | nt | -4 | -2 | 42 | i
Cc1n[nH]c(C)c1NC(=O)c1cc([N+](=O)[O-])ccc1Cl | -4 | -1 | 0 | nt | -19 | -5 | 3 | i
COC(=O)c1ccc(Cl)c(NC(=O)CSc2ncn[nH]2)c1 | 3 | 3 | 9 | -10 | 0 | nt | 4 | i
COCCN(Cc1ccc(C)cc1)C(=O)[C@H]1O[C@@H](n2ccc(=O)[nH]c2=O)[C@H](O)[C@@H]1O | nt | 3 | 2 | 12 | nt | 0 | nt | nt
CCOc1ccc(-c2nnn(CC#N)n2)cc1OC | 0 | 0 | 0 | -16 | -10 | -47 | 3 | i
Cc1nc2nc(-c3ccc(Cl)cc3)cn2nc1C | 2 | 3 | 3 | nt | 0 | nt | 10 | i
O=C(/C=C/c1ccco1)NCCc1ccc(F)cc1 | 42 | 1 | 7 | -15 | -2 | -13 | 14 | i
O=S(=O)(Cc1ccccc1)NCc1ccccn1 | -1 | 5 | -1 | -2 | nt | nt | 4 | i
CSc1cccc(CN2CCC(n3nccc3NC(=O)C3CC3)CC2)c1 | 2 | -2 | 1 | -18 | nt | -7 | 10 | i
O=C(CNCCc1ccc(Cl)cc1Cl)NCc1ccco1 | 1 | 0 | 1 | nt | 0 | -8 | 5 | i
Cc1ccc2cc(C)c3nnc(SCC(=O)N4CCCc5ccccc54)n3c2c1C | -5 | nt | nt | nt | -2 | nt | -2 | i

New compounds follow.
SMILES | eIF4H inh | MT1-MMP act inh | MT1-MMP act inh RFP | Yeast UUG start | CSC inhib | HIV Env fusion | PABP FP inh | Rce1 inhib | others
Cn1c(SCC(=O)NCCc2ccccc2)ncc(C(=O)Nc2ccc(F)cc2)c1=O | nt | -2 | -2 | -3 | -9 | 5 | nt | i
COCCN(C(=O)CSc1n[nH]c(-c2ccccc2)n1)c1c(N)n(Cc2ccccc2)c(=O)[nH]c1=O | nt | 0 | 2 | nt | -9 | nt | nt | i
COCCn1nnnc1C(c1ccccc1)N1CCN(C)CC1 (configuration not stated) | -10 | 3 | 7 | -7 | 3 | nt | 5 | i
O=Cc1c(-[n+]2ccccc2)nc([O-])n1-c1ccccc1 | 6 | 1 | 3 | -19 | -6 | nt | 17 | i
COc1ccc(-c2cc(N3CCN(CCO)CC3)n3nccc3n2)cc1 | nt | 4 | 7 | -5 | nt | -27 | nt | nt
C=CCOC(=O)C1=C(C)OC(N)=C(C#N)C1c1ccc2c(c1)OCO2 (configuration not stated) | 0 | 2 | 6 | -1 | -16 | nt | -1 | i
O=C(COC(=O)[C@H](Cc1ccccc1)NC(=O)c1ccco1)Nc1ccccc1OC(F)F | nt | 0 | 3 | -6 | -1 | 19 | nt | nt
Cc1ccc(CNC(=O)[C@H](C)[C@H]2C[C@]2(C)[C@H](NC(=O)OCc2ccccc2)c2ccccc2)o1 | -1 | -2 | -1 | 0 | 11 | nt | 0 | i
O=C(Nc1ccc2c(c1)CCCN2C(=O)c1cccs1)c1c(F)cccc1F | -6 | 6 | 5 | -4 | -5 | 16 | -5 | i
Cc1cc(=O)oc2cc(OCc3ccc(C(=O)OCC(=O)Nc4ccccc4OC(F)F)cc3)ccc12 | -6 | -3 | 0 | nt | 1 | 1 | -2 | i
COc1cccc(CNS(=O)(=O)c2ccc3c(c2)CC(C)N3C(C)=O)c1 (configuration not stated) | 1 | -2 | -9 | 0 | -1 | 16 | -1 | i
CCOc1ccc(NS(=O)(=O)c2ccc3c(c2)N(C(C)=O)CCO3)cc1 | -5 | -1 | -4 | -8 | -11 | 7 | 1 | i
CCOc1ccccc1NC(=O)C(=O)N/N=C/c1ccc([N+](=O)[O-])cc1 | 15 | 3 | -1 | -11 | -2 | -5 | -2 | i
CCc1ccc(C(c2ccc(CC)cc2)C(Cl)Cl)cc1 | nt | -2 | 2 | -11 | 18 | nt | nt | nt
O=c1c2c3c(sc2n2cnnc2n1Cc1ccccc1)CN(Cc1ccccc1)CC3 | 1 | -4 | -4 | -7 | -7 | -36 | 14 | i
Oc1ccc(Cl)cc1CNn1cnnc1 | 4 | 6 | 0 | nt | -3 | 6 | 0 | i
O=C1c2ccccc2C(=O)N1CCSc1n[nH]c(=S)s1 | 0 | -5 | 4 | nt | 3 | nt | 50 | i
CC1(C(=O)NCc2cccc(C(F)(F)F)c2)CCN1C1Cc2ccccc2C1 (configuration not stated) | nt | -3 | -2 | -4 | nt | 23 | nt | nt
CCN(CC)S(=O)(=O)c1ccc(C(=O)Nc2ncn(Cc3ccccc3)n2)cc1 | -8 | 2 | -3 | -17 | -17 | -27 | -12 | i
c1ccc2c(N3CCOCC3)nc(N3CCOCC3)nc2c1 | -4 | 2 | 4 | -23 | 7 | -257 | 13 | i

In the list so far, these have two or more sulfur atoms.
SMILES | eIF4H inh | MT1-MMP act inh | MT1-MMP act inh RFP | Yeast UUG start | CSC inhib | HIV Env fusion | PABP FP inh | Rce1 inhib | others
Cc1cccc2sc(NNC(=O)c3ccc(S(=O)(=O)N4CC(C)CC(C)C4)cc3)nc12 (configuration not stated) | 18 | nt | nt | -21 | 118* | nt | 1 | i
C=CCSC1=Nc2sccc2C2=NC(=O)CN12 | 9 | -2 | 6 | 4 | -7 | nt | 9 | i
COc1ccc(/C=C2\SC(=S)N(CCCC(=O)NNC(=O)c3ccccc3O)C2=O)cc1 | -8 | 6 | 0 | nt | -1 | 59* | 7 | i
O=C1c2ccccc2C(=O)N1CCSc1n[nH]c(=S)s1 | 0 | -5 | 4 | nt | 3 | nt | 50 | i

An excerpt; the hit share may differ from the screen's.
